UUG fidelity = modulators of start codon recognition fidelity in yeast | activity score, % at 18.7 µM | 0.13% of 350,000 active | S. cerevisiae UUG-firefly luciferase reporter, luminescence/redox ratio;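 active = replicate mean at a twofold rise or more, about +100% in these data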;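 note: firefly luciferase made from a UUG start codon reports start codon fidelity; reporter light over untreated wells divided by growth signal over untreated wells; some hits fall short of that in this replicate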
Starred values were filed as active, the others as inactive.

O=C(Nc1ccc(F)cc1)N1C[C@H]2[C@@H](c3ccccc31)[C@H](CO)N2C(=O)c1ccccn1 was read as UUG fidelity 59.7.
For N#Cc1cccc(-c2ccc3c(c2)[C@H]2[C@H](CCN2C(=O)CN2CCOCC2)[C@H](CO)N3)c1 the results were UUG fidelity -2.4.
`C/C=C/c1ccc([C@H]2[C@@H](CO)N(S(C)(=O)=O)[C@@H]2CN(C)C(=O)CC)cc1` gave UUG fidelity 1.0.
C[C@H](CO)N1C[C@H](C)[C@H](CN(C)C(=O)Nc2cccc3ccccc23)Oc2ccc(NC(=O)Nc3ccc(F)cc3)cc2C1=O was read as UUG fidelity -12.2.
Screening CO[C@@H]1CN(C)C(=O)c2cc(NC(=O)Nc3c(C)noc3C)ccc2OC[C@H](C)N(CC2CC2)C[C@@H]1C returned UUG fidelity -4.4.
For CN(C)C(=O)c1ccc(-c2ccc([C@H]3[C@@H](CO)N4CCCCN(CC5CC5)C[C@H]34)cc2)cc1 the results were UUG fidelity 5.8.
OC[C@@H]1[C@H](c2ccc(Br)cc2)[C@@H]2CNCCCCN12 was read as UUG fidelity -4.1.
For CC(=O)N1C[C@H]2[C@@H](c3ccccc31)[C@H](CO)N2C(=O)Nc1ccc(F)cc1 the results were UUG fidelity 5.9.
For CN(C)C(=O)c1cccc(-c2ccc3c(c2)[C@H]2[C@H](CCN2C(=O)c2ccncc2)[C@H](CO)N3C)c1 the results were UUG fidelity -4.0.
`COc1cccc(S(=O)(=O)Nc2ccc3c(c2)C(=O)N(C)C[C@H](OC)[C@@H](C)CN(C(=O)Cc2cccnc2)[C@@H](C)CO3)c1` gave UUG fidelity 5.6.
CN1c2ccc(-c3ccccc3)cc2[C@H]2[C@H](CCN2C(=O)CN2CCOCC2)[C@@H]1CO was read as UUG fidelity 4.6.
CC(=O)N1[C@@H](CO)[C@@H]2c3ccccc3N(S(=O)(=O)c3ccccc3C)C[C@@H]21 was read as UUG fidelity 6.9.
CCCC(=O)Nc1ccc2c(c1)OC[C@H](C)N(C(=O)c1ccccn1)C[C@@H](C)[C@H](OC)CN(C)C2=O was read as UUG fidelity -12.0.
`O=C(C1CC1)N1CCCCN2[C@H](CO)[C@H](c3ccc(C#CC4CCCC4)cc3)[C@H]2C1` gave UUG fidelity 4.1.
For CO[C@H]1CN(C)C(=O)c2ccc(NC(C)=O)cc2OC[C@H](C)N(Cc2ccccc2C(=O)O)C[C@H]1C the results were UUG fidelity -18.4.
For C[C@H](CO)N1C[C@H](C)[C@@H](CN(C)CC2CC2)Oc2ccc(NS(=O)(=O)c3ccc(F)cc3)cc2C1=O the results were UUG fidelity 19.8.
CCC(=O)Nc1ccc2c(c1)C(=O)N(C)C[C@H](OC)[C@H](C)CN(C(=O)c1ccccn1)[C@@H](C)CO2 was read as UUG fidelity -10.4.
Screening CO[C@H]1CN(C)C(=O)c2cc(NS(=O)(=O)CC(F)(F)F)ccc2OC[C@@H](C)N(Cc2cccnc2)C[C@@H]1C returned UUG fidelity -1.0.
COc1ccccc1CN1[C@H](CO)[C@@H]2c3ccccc3N(C(=O)c3cccnc3)C[C@@H]21 was read as UUG fidelity 18.2.
`O=C(C[C@H]1CC[C@@H]2[C@H](COC[C@H](O)CN2Cc2cc(F)cc(F)c2)O1)NCc1cccc(F)c1` gave UUG fidelity -14.9.
Screening CO[C@@H]1CN(C)C(=O)c2ccc(NC(=O)C3CC3)cc2OC[C@@H](C)N(Cc2ccccc2)C[C@@H]1C returned UUG fidelity 22.6.
CCCC#Cc1ccc([C@@H]2[C@@H](CO)N3CCCCN(Cc4cncnc4)C[C@@H]23)cc1 was read as UUG fidelity 0.9.
`O=S(=O)(NC[C@H]1[C@H](c2ccccc2)[C@@H](CO)N1CC1CC1)c1ccccc1` gave UUG fidelity 0.0.
Screening C[C@@H]1CN([C@@H](C)CO)C(=O)Cc2cc(NC(=O)c3ccncc3)ccc2O[C@H]1CN(C)S(=O)(=O)c1ccccc1 returned UUG fidelity 10.8.
`C[C@H](CO)N1C[C@H](C)[C@H](CN(C)Cc2ccc(C(F)(F)F)cc2)Oc2ccc(NC(=O)CCC(F)(F)F)cc2C1=O` gave UUG fidelity -2.1.
O=C(c1ccc2c(c1)OCO2)N1C[C@@H]2[C@H](c3ccccc31)[C@@H](CO)N2Cc1ccc2c(c1)OCO2 was read as UUG fidelity 1.5.
C[C@H](CO)N1C[C@H](C)[C@H](CN(C)C)Oc2ccc(NS(C)(=O)=O)cc2C1=O was read as UUG fidelity -8.2.
CCCNC(=O)C[C@H]1CC[C@H]2[C@@H](COC[C@H](O)CN2C(=O)Nc2ccccc2OC)O1 was read as UUG fidelity 8.5.
Screening COc1cccc(-c2ccc3c(c2)[C@@H]2[C@@H](CCN2C(=O)CN2CCOCC2)[C@H](CO)N3)c1 returned UUG fidelity -7.0.
`OC[C@@H]1[C@@H](c2ccc(-c3cccnc3)cc2)[C@@H]2CN(CC3CCOCC3)CCCCN12` gave UUG fidelity -18.2.
C[C@H]1CN([C@@H](C)CO)C(=O)c2cc(NS(=O)(=O)c3cn(C)cn3)ccc2O[C@@H]1CN(C)Cc1ccc(Cl)c(Cl)c1 was read as UUG fidelity -7.4.
CCNC(=O)C[C@@H]1CC[C@H]2[C@@H](COC[C@H](O)CN2C(=O)C2CCCC2)O1 was read as UUG fidelity -11.7.
O=S(=O)(c1ccccc1F)N1CC[C@H]2[C@H](CO)Nc3ccc(-c4ccccc4F)cc3[C@H]21 was read as UUG fidelity 4.6.
Screening O=C(c1ccccn1)N1CC[C@@H]2[C@@H](CO)Nc3ccc(-c4ccc(F)cc4)cc3[C@@H]21 returned UUG fidelity 14.0.
For COc1ccccc1CNC(=O)C[C@@H]1CC[C@@H]2[C@H](COC[C@@H](O)CN2C(=O)Nc2ccc(Cl)cc2)O1 the results were UUG fidelity 14.5.
For O=C(NC1CCCC1)N1CCCCN2[C@@H](CO)[C@@H](c3ccc(-c4cncnc4)cc3)[C@@H]2C1 the results were UUG fidelity -3.8.
COc1ccc(CN(C)C[C@@H]2Oc3c(NC(=O)NC4CCCCC4)cccc3C(=O)N([C@H](C)CO)C[C@@H]2C)cc1 was read as UUG fidelity -14.9.
`COCC(=O)Nc1ccc2c(c1)OC[C@H](C)N(CC1CCCCC1)C[C@H](C)[C@H](OC)CN(C)C2=O` gave UUG fidelity 10.3.
C[C@H](NC(=O)C[C@H]1CC[C@@H]2[C@H](COC[C@H](O)CN2C(=O)Nc2cc(Cl)cc(Cl)c2)O1)c1ccccc1 was read as UUG fidelity -3.2.
CO[C@H]1CN(C)C(=O)c2cc(NC(=O)C3CC3)ccc2OC[C@@H](C)N(C(=O)C2CCCCC2)C[C@H]1C was read as UUG fidelity 8.6.
For COc1ccc(NC(=O)N2CCCCN3[C@@H](CO)[C@H](c4ccc(C#CCC(C)C)cc4)[C@@H]3C2)cc1 the results were UUG fidelity 4.5.
Screening COc1ccc(NC(=O)Nc2cccc3c2O[C@@H](CN(C)Cc2ccncc2)[C@@H](C)CN([C@H](C)CO)C3=O)cc1 returned UUG fidelity -4.0.
Screening CN1C(=O)c2cc(NC(=O)c3ccno3)ccc2OC[C@H]2O[C@@H](CC(=O)NC3Cc4ccccc4C3)CC[C@@H]21 returned UUG fidelity 31.0.
Cc1ccc(S(=O)(=O)Nc2ccc3c(c2)C(=O)N([C@H](C)CO)C[C@@H](C)[C@@H](CN(C)C)O3)cc1 was read as UUG fidelity -9.4.
CNC[C@@H]1Oc2ccc(NC(=O)NC(C)C)cc2CC(=O)N([C@H](C)CO)C[C@H]1C was read as UUG fidelity -10.6.
Screening C[C@@H]1CN([C@H](C)CO)C(=O)c2cccc(NS(=O)(=O)c3cccs3)c2O[C@@H]1CN(C)Cc1ccc2c(c1)OCO2 returned UUG fidelity 0.4.
Screening CO[C@@H]1CN(C)C(=O)c2cc(NC(C)=O)ccc2OC[C@@H](C)N(Cc2ccccn2)C[C@@H]1C returned UUG fidelity -17.3.
For COc1ccc(S(=O)(=O)N(C)C[C@@H]2Oc3ccc(NC(=O)C4CC4)cc3C(=O)N([C@H](C)CO)C[C@H]2C)cc1 the results were UUG fidelity 26.2.
Screening O=C(C[C@@H]1CC[C@@H]2[C@H](COC[C@@H](O)CN2Cc2ccccc2F)O1)N1CCc2ccccc2C1 returned UUG fidelity 14.1.
`COCC(=O)Nc1ccc2c(c1)[C@@H]1C[C@@H](CC(=O)NCc3ccncc3)O[C@@H](CO)[C@@H]1O2` gave UUG fidelity -8.4.
CC(C)NC(=O)N(C)C[C@H]1Oc2ccc(NS(=O)(=O)c3ccccc3)cc2C(=O)N([C@@H](C)CO)C[C@@H]1C was read as UUG fidelity 9.2.
`Cc1cccc(-c2ccc([C@H]3[C@H]4CN(C(=O)c5ccc6c(c5)OCO6)CCCCN4[C@H]3CO)cc2)c1` gave UUG fidelity 19.2.
Screening CO[C@@H]1CN(C)C(=O)c2cc(NC(=O)C3CCC3)ccc2OC[C@@H](C)N(C(=O)NC(C)C)C[C@H]1C returned UUG fidelity -3.0.
C[C@H](CO)N1C[C@H](C)[C@H](CN(C)C(=O)NC2CCCCC2)Oc2ncc(C#Cc3ccc(C(F)(F)F)cc3)cc2C1=O was read as UUG fidelity -20.4.
`C[C@@H](O)C#Cc1ccc([C@@H]2[C@@H](CO)N3CCCCN(C(=O)c4ccc5c(c4)OCO5)C[C@H]23)cc1` gave UUG fidelity -6.2.
CO[C@H]1CN(C)C(=O)c2cc(NC(=O)CC(F)(F)F)ccc2OC[C@H](C)N(S(=O)(=O)c2cn(C)cn2)C[C@H]1C was read as UUG fidelity 4.4.
For Cc1ccccc1S(=O)(=O)N1CC[C@@H]2[C@@H](CO)N(C)c3ccc(-c4cccc(C#N)c4)cc3[C@@H]21 the results were UUG fidelity -3.2.
O=C(Nc1cc(F)ccc1F)N1C[C@@H]2[C@H](c3ccccc31)[C@H](CO)N2C(=O)c1ccccc1 was read as UUG fidelity -5.1.
For CC=Cc1ccc2n(c1=O)C[C@@H]1[C@@H](CO)[C@H](C(=O)Nc3ccccc3)N(CC3CC3)[C@H]21 (mixture of isomers) the results were UUG fidelity 2.8.
`C[C@H](CO)N1C[C@H](C)[C@H](CN(C)C)Oc2c(NC(=O)Nc3ccc(F)cc3)cccc2C1=O` gave UUG fidelity 20.3.
For C[C@H]1CN([C@@H](C)CO)C(=O)c2cccc(NC(=O)c3cnccn3)c2O[C@@H]1CN(C)C the results were UUG fidelity -15.9.
N#Cc1cccc(-c2ccc3c(c2)[C@H]2[C@H](CCN2C(=O)C2CCCCC2)[C@@H](CO)N3)c1 was read as UUG fidelity 1.5.
For CN1C(=O)c2cc(NC(=O)c3cccc(F)c3)ccc2OC[C@H]2O[C@@H](CC(=O)N3CCc4ccccc4C3)CC[C@@H]21 the results were UUG fidelity -16.1.
`COc1ccc(CN2[C@H](CO)[C@@H]3c4ccccc4N(C(=O)NC(C)C)C[C@@H]32)cc1` gave UUG fidelity -10.1.
Screening C[C@@H]1CN([C@H](C)CO)C(=O)CCCn2nncc2CO[C@@H]1CN(C)Cc1cccc(C(=O)O)c1 returned UUG fidelity 9.1.
Screening CN1c2ccc(-c3ccccc3)cc2[C@@H]2[C@@H](CCN2C(=O)Cc2ccccc2)[C@@H]1CO returned UUG fidelity -12.7.
For COc1ccc(-c2ccc([C@H]3[C@@H](CO)N4CCCCN(C(=O)NC(C)C)C[C@H]34)cc2)cc1 the results were UUG fidelity -9.2.
`C[C@@H]1CN([C@@H](C)CO)C(=O)Cc2cc(NC(=O)CCC(F)(F)F)ccc2O[C@H]1CN(C)CC1CCCCC1` gave UUG fidelity 0.1.
`CO[C@@H]1CN(C)C(=O)c2cc(NC(=O)C3CCCC3)ccc2OC[C@@H](C)NC[C@@H]1C` gave UUG fidelity -7.6.
For C/C=C/c1ccc([C@@H]2[C@@H](CN(C)C(=O)CN(C)C)N(C(=O)C3CC3)[C@H]2CO)cc1 the results were UUG fidelity 6.3.
`CCC(=O)N1CC[C@@H]2[C@H]1c1cc(-c3ccccc3F)ccc1N(C)[C@@H]2CO` gave UUG fidelity -2.8.
`COc1ccccc1C#Cc1ccc([C@H]2[C@@H](CO)N3CCCCN(S(C)(=O)=O)C[C@@H]23)cc1` gave UUG fidelity 0.6.
Screening CCCNC(=O)N1CC[C@@H]2[C@H]1c1cc(-c3ccccc3)ccc1N(C)[C@H]2CO returned UUG fidelity 2.8.
For O=C(C[C@@H]1CC[C@@H]2[C@H](COC[C@H](O)CN2CCc2ccccc2)O1)NCc1ccc(Oc2ccccc2)cc1 the results were UUG fidelity -6.8.
Screening C/C=C/c1ccc([C@@H]2[C@@H](CO)N(C(=O)CC)[C@@H]2CN(C)S(C)(=O)=O)cc1 returned UUG fidelity -9.7.
`CN(C)C(=O)c1cccc(-c2ccc3c(c2)[C@@H]2[C@@H](CCN2S(=O)(=O)c2cn(C)cn2)[C@H](CO)N3)c1` gave UUG fidelity -1.7.

Four compounds already listed, arranged by number of heavy atoms, smallest number first:
`CCC(=O)N1CC[C@@H]2[C@H]1c1cc(-c3ccccc3F)ccc1N(C)[C@@H]2CO` gave UUG fidelity -2.8.
For CN(C)C(=O)c1ccc(-c2ccc([C@H]3[C@@H](CO)N4CCCCN(CC5CC5)C[C@H]34)cc2)cc1 the results were UUG fidelity 5.8.
CC(C)NC(=O)N(C)C[C@H]1Oc2ccc(NS(=O)(=O)c3ccccc3)cc2C(=O)N([C@@H](C)CO)C[C@@H]1C was read as UUG fidelity 9.2.
For O=C(C[C@@H]1CC[C@@H]2[C@H](COC[C@H](O)CN2CCc2ccccc2)O1)NCc1ccc(Oc2ccccc2)cc1 the results were UUG fidelity -6.8.

By substructure, the entries above containing a CF3 group (5)
Screening CO[C@H]1CN(C)C(=O)c2cc(NS(=O)(=O)CC(F)(F)F)ccc2OC[C@@H](C)N(Cc2cccnc2)C[C@@H]1C returned UUG fidelity -1.0.
`C[C@H](CO)N1C[C@H](C)[C@H](CN(C)Cc2ccc(C(F)(F)F)cc2)Oc2ccc(NC(=O)CCC(F)(F)F)cc2C1=O` gave UUG fidelity -2.1.
C[C@H](CO)N1C[C@H](C)[C@H](CN(C)C(=O)NC2CCCCC2)Oc2ncc(C#Cc3ccc(C(F)(F)F)cc3)cc2C1=O was read as UUG fidelity -20.4.
CO[C@H]1CN(C)C(=O)c2cc(NC(=O)CC(F)(F)F)ccc2OC[C@H](C)N(S(=O)(=O)c2cn(C)cn2)C[C@H]1C was read as UUG fidelity 4.4.
`C[C@@H]1CN([C@@H](C)CO)C(=O)Cc2cc(NC(=O)CCC(F)(F)F)ccc2O[C@H]1CN(C)CC1CCCCC1` gave UUG fidelity 0.1.

The list is partial (hit frequency here may not be typical).
